KCNQ2 block = KCNQ2 channel blockers in CHO-K1 cells – cell-based, FluxOR thallium flux, B-score, primary screen (AID 2156); 20 min; active compounds read low; only compounds with negative scores are shown here; some inactives read as strong as hits; actives 1.1% (n = 310,000); O88943; B-score at 10 µM;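 active means fluorescence ratio B-score at most minus 3 library SDs, with starting brightness B-score within 2 library SDs, cut at about -5.5 in these data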
Target sequence (O88943 whole entry, looked up): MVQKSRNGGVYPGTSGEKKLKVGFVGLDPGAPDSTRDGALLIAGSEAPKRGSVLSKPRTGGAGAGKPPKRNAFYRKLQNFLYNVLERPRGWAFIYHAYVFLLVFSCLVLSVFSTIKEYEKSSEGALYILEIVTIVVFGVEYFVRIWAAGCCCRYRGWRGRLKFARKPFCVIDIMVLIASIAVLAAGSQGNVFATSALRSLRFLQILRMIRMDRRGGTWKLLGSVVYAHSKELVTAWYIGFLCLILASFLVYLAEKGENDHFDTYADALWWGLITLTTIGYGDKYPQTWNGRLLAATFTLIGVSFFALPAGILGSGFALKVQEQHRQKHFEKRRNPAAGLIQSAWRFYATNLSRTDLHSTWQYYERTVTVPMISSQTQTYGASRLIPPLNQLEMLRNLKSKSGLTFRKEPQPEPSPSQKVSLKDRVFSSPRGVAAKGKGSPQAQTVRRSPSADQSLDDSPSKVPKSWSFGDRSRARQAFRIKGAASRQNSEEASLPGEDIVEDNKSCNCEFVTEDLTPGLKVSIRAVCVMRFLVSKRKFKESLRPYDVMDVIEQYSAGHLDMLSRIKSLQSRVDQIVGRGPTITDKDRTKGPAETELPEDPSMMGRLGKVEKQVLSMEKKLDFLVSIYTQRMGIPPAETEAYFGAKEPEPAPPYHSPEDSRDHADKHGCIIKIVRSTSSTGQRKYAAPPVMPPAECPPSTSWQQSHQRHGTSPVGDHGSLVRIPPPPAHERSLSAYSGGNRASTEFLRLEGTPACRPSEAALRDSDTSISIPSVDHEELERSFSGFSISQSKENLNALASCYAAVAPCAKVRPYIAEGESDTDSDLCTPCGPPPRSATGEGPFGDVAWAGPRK
KCNQ2 block baseline = recorded beside KCNQ2 block, whose call it bears; B-score; measured here: initial fluorescence intensity artifact check;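 brightness before thallium and not channel activity; 0 = typical well and far values either way flag optical interference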
Numbers without * were called inactive; i = inactive. Not all compounds are listed, so the mix of outcomes need not match the whole.

SMILES | KCNQ2 block | KCNQ2 block baseline
Cc1cccc(N2CC(C(=O)Nc3nc4ccc(S(C)(=O)=O)cc4s3)CC2=O)c1C (stereo not drawn) | i | 0.39
CC(OC(=O)Cc1cccc(C(F)(F)F)c1)C(=O)Nc1ccc(Cl)cn1 (stereo not drawn) | i | -0.24
O=C(OCC(=O)N1CCCC1)c1ccccc1OCc1ccccc1 | i | 1.3
COc1ccc(N2CCN(C(=O)CCN3C(=S)NC(C)(C)CC3C)CC2)cc1 (stereo not drawn) | i | -0.3
Cc1ccc(CN(C(=O)c2sc3ccccc3c2Cl)C2CCS(=O)(=O)C2)cc1 (stereo not drawn) | i | -1.9
COc1cccc(-c2ccc3nnc(SCC(=O)N4CCOCC4)n3n2)c1 | i | 0.12
Nc1nnc(SCC(=O)c2cccc([N+](=O)[O-])c2)s1 | i | -1.4
Cn1cccc1C(=O)NS(=O)(=O)c1ccccc1Cl | i | 0.01
COC(=O)[C@@]1(Cc2ccc(OC)cc2)[C@H]2c3cc(C(=O)N(C)C)n(Cc4ccc(OC(F)(F)F)cc4)c3C[C@H]2CN1C(=O)c1ccccc1 | i | 0.56
O=C(Cn1nnc2ccccc2c1=O)NC1CCCc2ccccc21 (stereo not drawn) | i | 1.1
O=C(COC(=O)C1CC1)Nc1ccc(OC(F)F)cc1 | i | 1.8
COc1ccccc1C(=O)NCC(=O)OCc1ccc(Br)cc1 | i | 4.5
O=C(Nc1ccccc1Cl)C1CCCN(c2ncnc3c2nc2n3CCCCC2)C1 (stereo not drawn) | i | -1.2
CN(C)c1ccc(/C=C/c2c([N+](=O)[O-])c(=O)n(C)c(=O)n2C)cc1 | i | 0.83
COc1ccc(NC(=O)c2ccccc2NC(=O)CSc2ccc(Cl)cc2)cc1 | i | 1.1
O=C(NCCc1ccc(F)cc1)c1ccc2c(=O)n3c(nc2c1)CCC3 | i | 0.02
N#CCCOC1(C#CCN2CCCC2)CCCCC1 | i | 0.21
CCOC(=O)c1c(OCCO)nn(-c2ccc(Cl)cc2)c1N | i | -0.55
O=C(Cc1ccc(S(=O)(=O)N2CCOCC2)s1)Oc1ccc(F)cc1 | i | -1.6
CC(C)c1ccc(NC(=O)C(c2ccccc2)N2CCC3(CC2)OCCO3)cc1 (stereo not drawn) | i | -0.71
CCOc1ccc(CCNC(=O)COC(=O)c2cccs2)cc1OCC | i | 0.29
CCOC(=O)N1CCN(S(=O)(=O)N2CCCC(C(=O)NCc3ccc(OC)cc3OC)C2)CC1 (stereo not drawn) | i | -1.2
Cc1ccc(NC(=O)N/C=C/c2ccccc2)cc1 | i | 0.46
O=[N+]([O-])c1ccc(S(=O)(=O)NCC(c2cccnc2)N2CCc3ccccc3C2)cc1 (stereo not drawn) | i | 0.55
COc1ccc(N(CC(O)CN2C(=O)NC(C)(C)C2=O)S(=O)(=O)c2ccccc2)cc1 (stereo not drawn) | i | 0.53

One compound at a time (already shown):
Profile of `O=C(COC(=O)C1CC1)Nc1ccc(OC(F)F)cc1` = KCNQ2 block = i; KCNQ2 block baseline = 1.8
Profile of `COC(=O)[C@@]1(Cc2ccc(OC)cc2)[C@H]2c3cc(C(=O)N(C)C)n(Cc4ccc(OC(F)(F)F)cc4)c3C[C@H]2CN1C(=O)c1ccccc1` = KCNQ2 block = i; KCNQ2 block baseline = 0.56
Profile of `CC(OC(=O)Cc1cccc(C(F)(F)F)c1)C(=O)Nc1ccc(Cl)cn1` (stereo not drawn) = KCNQ2 block = i; KCNQ2 block baseline = -0.24

(cont.)
SMILES | KCNQ2 block | KCNQ2 block baseline
COCC(=O)N(Cc1cc2cccc(C)c2[nH]c1=O)c1ccccc1 | i | -1.3
COC(=O)c1ccccc1NC(=O)NC1CCN(Cc2ccccc2)CC1 | i | -0.22
CCC1CCCCN1Cc1ccc(OC)c(C)c1C (stereo not drawn) | i | 0.05
Oc1ccc(/C=C/c2nc(-c3ccccc3O)n(-c3ccccc3)n2)cc1 | i | -0.03
Cc1cc(N)nc2nc(C(F)(F)F)nn12 | i | -0.5
CCn1ncc(N2CCOCC2)c(Cl)c1=O | i | -0.16
Cc1ccccc1N=C1c2ccccc2C(=O)C1[N+](=O)[O-] (stereo not drawn) | i | 1.8
N/C(=N\OC(=O)COc1ccc([N+](=O)[O-])cc1)c1cccnc1 | i | 0.91
CCc1c(C)nc2cc(-c3ccc(OC)cc3)[nH]n2c1=O | i | 0.04
O=C(Nc1ccccc1C(=O)N1CCN(Cc2ccccc2)CC1)c1ccc(F)cc1 | i | -1
COc1cccc(/C=N/NC(=O)C(=O)NCc2ccco2)c1OC | i | -0.84
CCOC(=O)C(Cc1c(F)cccc1Cl)c1ccnc2nc(N)nn12 (stereo not drawn) | i | -0.84
COc1ccc2oc(=O)c(C(=O)NCc3ccc(F)cc3)cc2c1 | i | 0.41
COc1ccc(O)c(C=Nc2cc(C)on2)c1 | i | -0.48
CCn1c(-c2cc(-c3ccc(C)cc3)nc3ccccc23)n[nH]c1=S | i | -0.03
Cc1cccc(N(C)S(=O)(=O)c2csc(C(N)=O)c2)c1 | i | 0.66
COc1ccc(C(=O)NCCn2ccc3ccccc32)c(OC)c1 | i | 1.6
C=CCn1c(SCC(=O)Nc2cc(C)ccc2C)nnc1-c1cnccn1 | i | -0.82
CCOC(=O)c1cnn(-c2nc(OCC)cc(OCC)n2)c1C | i | -0.1
CC1=NNC(=O)C1Cc1ccccc1C (stereo not drawn) | i | -0.19
CCCC(=O)N(CCN1CCOCC1)c1nc2cc(C)c(C)cc2s1 | i | -0.45
CCN1CCC(Nc2ccnc3cc(Cl)ccc23)CC1 | i | -1.2
COc1ccc(OCC(=O)Nc2ccc(C(=O)Nc3ccccc3C(=O)O)cc2)cc1 | i | 2.1
CCn1c2ccccc2c2cc(NC(=O)CN(C)CC(=O)Nc3ccc(N4CCOCC4)cc3)ccc21 | i | 0.03
Cc1ccc(C(=O)O)cc1NC(=S)NC(=O)Cc1ccccc1 | i | -0.47

Next section:
SMILES | KCNQ2 block | KCNQ2 block baseline
c1cncc(CSc2nnc3ccc(-c4ccco4)nn23)c1 | i | -1.2
Cc1ccccc1NC(=O)Cc1nnc(NC(=O)Nc2ccccc2F)s1 | i | 0.22
COC(=O)c1c(-c2cccs2)csc1NC(=O)CN1CCOCC1 | i | -0.08
Cc1cc(Nc2ccccc2)nc(NCc2ccccc2)n1 | -6.2* | -0.94*
COC(=O)N/N=C\c1ccccc1OC/C=C/c1ccccc1 | i | -0.95
CC(C)(C)C(=O)Nc1cc(NC(=O)C(C)(C)C)cc(C(=O)Nc2c[nH]c(=O)[nH]c2=O)c1 | i | 0.86
CCCCN(Cc1ccc(C(=O)N[C@H](C(=O)O)C(C)C)cc1)C(=O)C(c1ccccc1)c1ccccc1 | i | -0.87
CCCn1c(CN2CCN(C(=O)OCC)CC2)nc2cc(NC(C)=O)ccc21 | i | 0.06
CCC(=O)N1CCc2cc(Br)cc(S(=O)(=O)CCC(=O)NCC3CCCO3)c21 (stereo not drawn) | i | 0.78
CC(C)c1ccc(N(CC(=O)NC2CCCCC2)C(=O)CNC(=O)c2ccco2)cc1 | i | 0.23
Cc1ccc(C(=O)NCCNS(=O)(=O)c2ccccc2)cn1 | i | -0.14
CC(=O)C(Cc1ccccc1)NC(=O)CN(C)Cc1ccccc1Cl (stereo not drawn) | -8.5* | -1.1*
CC(C)c1ccc(C(=O)NCCCN2CCOCC2)cc1 | i | -2.1
O=C(NCCc1ccc(F)cc1)NC12CC3CC(CC(C3)C1)C2 | i | -0.58
COc1ccc(-n2nc(C(=O)NCC(=O)Nc3cccc(Cl)c3)c3ccccc3c2=O)cc1 | i | 3.3
Cc1ccc(C)c(N(CC(=O)NC(C)C)C(=O)CCC(=O)Nc2ccccn2)c1 | i | 0.38
C=CCN1C(=O)C(Cc2cccc(Cl)c2)SC1=Nc1ccc(C(=O)O)cc1 (stereo not drawn) | i | 1.1
COc1ccc(C(=O)Nc2ccc(Cl)cc2C(=O)N2CCCC(C)C2)cc1 (stereo not drawn) | i | -1.2
CC(C)C[C@H](NC(=O)NCCC1=CCCCC1)C(=O)O | i | 0.45
O=C(CCNC(=O)N1CC(=O)Nc2ccccc21)Nc1cccc(Cl)c1 | i | -1.4
Cc1ccc(C)c(-c2nnc(OCC(=O)Nc3cc(C)on3)c3ccccc23)c1 | i | -1
O=C(N=NC(=O)c1ccco1)c1ccc2c(O)n(N3C(=O)c4ccccc4C3=O)c(O)c2c1 | i | 0.17
COC(=O)c1ccc(C2/C(=C(\O)c3ccc4c(c3)OCCO4)C(=O)C(=O)N2c2nnc(C)s2)cc1 (stereo not drawn) | i | 1.5
CC(=O)Nc1ccc(N(CC(O)Cn2c3ccccc3c3ccccc32)S(=O)(=O)c2ccc(C)cc2)cc1 (stereo not drawn) | i | -2.3
Cc1cccc(-c2oc(C)c(C)[n+]2[O-])c1 | i | 0.8

(cont.)
SMILES | KCNQ2 block | KCNQ2 block baseline
Cc1ccc2cccc(S(=O)(=O)Nc3c(C)n(C)n(-c4ccccc4)c3=O)c2n1 | i | 0.43
O=C(Cn1cc(/C=C\[N+](=O)[O-])c2ccccc21)Nc1ccccc1 | i | 0.91
Cn1cc(S(=O)(=O)Nc2ccc(Oc3ccccc3)cc2)c(=O)n(C)c1=O | i | 1.7
CCOc1ccccc1NC(=O)C1CCCN(S(=O)(=O)c2cccc3nsnc23)C1 (stereo not drawn) | i | -0.9
Cc1ccc(N2C(=O)c3ccccc3C2Nc2ccc(S(=O)(=O)N3CCOCC3)cc2)nc1 (stereo not drawn) | i | 0.16
CCn1c(=O)c(CCC(=O)NCCN2CCOCC2)c(C)c2c(C)nn(-c3cccc(C)c3)c21 | i | -0.75
Cc1cc(C)nc(SC(C)CNS(=O)(=O)c2ccccc2)n1 (stereo not drawn) | i | -0.61
NC(=O)CC1SC(N)=NC1=O (stereo not drawn) | i | -1.6
CCN1CCN(C2=C(NS(=O)(=O)c3ccc(Br)cc3)C(=O)c3ccccc3C2=O)CC1 | i | -1
COc1cc(NC(=O)c2cc(C)no2)cc(OC)c1OC | i | 1.2
O=C(COC(=O)c1cc([N+](=O)[O-])ccc1N1CCOCC1)Nc1ccccc1OC(F)F | i | 0.91
COc1cc(C(=O)NCc2cn3cccc(C)c3n2)cc(OC)c1OC | i | 0.75
Cc1ccccc1OCC(O)CN1CCN(CCN2C(=O)c3cccc4cccc(c34)C2=O)CC1 (stereo not drawn) | i | 2.8
CC(NC(=S)NNS(=O)(=O)c1ccc(C(C)(C)C)cc1)c1ccccc1 (stereo not drawn) | -10* | 1.8*
CCCN(CCC)C(=O)CC(c1ccccc1)c1ccco1 (stereo not drawn) | i | -1.1
O=C(COc1ccc(Br)cc1)Nc1cc(S(=O)(=O)N2CCCCC2)ccc1N1CCCCC1 | i | -0.14
Cc1ccc(N(Cc2ccco2)C(=O)c2cccc(S(=O)(=O)N(C)C)c2)cc1 | i | -1.5
COc1ccccc1CNC(=O)CSc1ncc(C(=O)Nc2ccccc2)c(=O)n1C | i | -1.8
COc1ccc(NC(=O)Cn2c(=O)n(CC(=O)NCc3ccco3)c(=O)c3ccccc32)cc1 | i | -1.8
CSc1nc(N)nc(-c2cccs2)c1C#N | i | 0.01
Cc1ccc(F)cc1NCC(=O)Nc1ccc(Cl)cc1F | i | -0.81
CN(c1ccc(Br)cc1)S(=O)(=O)c1ccc2[nH]cc(C(=O)NCCN3CCOCC3)c(=O)c2c1 | i | -0.29
CN(C)S(=O)(=O)N1CCN(CC(=O)Nc2ccc(Br)cc2)CC1 | i | 0.75
CCOC(=O)CCCSc1nc2sc3c(c2c(=O)[nH]1)CCC3 | i | 0.58
CCNC(=O)CN(CCc1ccccc1)S(=O)(=O)c1ccc(OC)cc1 | i | -0.17

Ordered by value in KCNQ2 block baseline (low to high): six from the list above.
SMILES,KCNQ2 block,KCNQ2 block baseline
CCOc1ccccc1NC(=O)C1CCCN(S(=O)(=O)c2cccc3nsnc23)C1 (stereo not drawn),i,-0.9
CCNC(=O)CN(CCc1ccccc1)S(=O)(=O)c1ccc(OC)cc1,i,-0.17
O=C(COc1ccc(Br)cc1)Nc1cc(S(=O)(=O)N2CCCCC2)ccc1N1CCCCC1,i,-0.14
Cc1ccc(N2C(=O)c3ccccc3C2Nc2ccc(S(=O)(=O)N3CCOCC3)cc2)nc1 (stereo not drawn),i,0.16
Cc1ccc2cccc(S(=O)(=O)Nc3c(C)n(C)n(-c4ccccc4)c3=O)c2n1,i,0.43
COc1cc(C(=O)NCc2cn3cccc(C)c3n2)cc(OC)c1OC,i,0.75

(next part)
SMILES | KCNQ2 block | KCNQ2 block baseline
[O-]/C(=C(\C(=S)Nc1ccc(SC(F)F)cc1)[n+]1ccccc1)c1ccc(Cl)cc1Cl | i | -0.45
Cc1oc(-c2ccccc2)nc1CS(=O)CC(=O)NC1CCCC1 (stereo not drawn) | i | -1.3
COc1ccc(C(=O)NC2CCSc3ccccc32)cc1 (stereo not drawn) | i | 0.4
CC1CCCCC1NC(=O)CSc1nnc(COc2ccccc2Cl)o1 (stereo not drawn) | i | 2.4
COc1ccccc1C(OC(=O)c1ccco1)C(=O)NC(C)(C)C (stereo not drawn) | i | -0.34
CCC(=O)N(Cc1ccco1)Cc1cc2cccc(C)c2n2nnnc12 | i | -0.29
Cc1ccccc1CNC(=O)C(=O)NCC1OCCCN1S(=O)(=O)c1cccs1 (stereo not drawn) | i | -1.1
CCN1CCN(CCOc2ccc(Cl)cc2)CC1 | i | -1.1
CCOc1ccccc1CNc1ccc(O)cc1 | i | 2.1
O=[N+]([O-])C(=c1ccc2c(c1)N1C3=C(CCCC3)CC3CCCCC31N=2)[N+](=O)[O-] (stereo not drawn) | i | -1.5
Cc1ccc(/C=N/NC(=O)Cn2nc(C)c(Br)c2C)o1 | i | 1.3
O=S(=O)(c1cccc(F)c1)N1CCN(c2ncnc3scc(-c4ccc(F)cc4)c23)CC1 | i | 1.2

Screening data (PubChem)
